Bioassay records (PubChem)
Beta apoptosis – beta cell apoptosis inhibition; INS-1E cytokine-induced death, ATP luminescence, 48 h; percent of positive-control rescue, neutral wells zero; hit rate 0.8% among 300,000; protection from apoptosis, % (concentration not given with the values);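 active means all replicates at 75% or more, or half of them and the mean; inconclusive means half reach 75% but not the mean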;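 further: 0% = cytokine-treated negative control wells and 100% = positive control rescue; higher means more ATP so stronger rescue from cytokine killing; wells of about 40 µL received 100 nL stock; the first replicate is given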
Calb FLC – affects C. albicans growth with fluconazole; C. albicans CaCi-2 (fluconazole-resistant clinical isolate) + fluconazole, Alamar Blue growth, 48 h; growth inhibition, % (no concentration beside the values); hit rate 0.57% among 300,000; AID 1979;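 active means most replicates above 75%; inconclusive means exactly half above 75%; inactive means most below 75%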;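 further: all wells also contain fluconazole at 8 µg/ml as a sub-toxic cotreatment; 0% = median of DMSO wells and 100% = median of geldanamycin control wells; wells of about 8 µL received 7.5 nL stock; the first replicate is given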
MLL AF4-AF9 inh – blocks AF4 peptide binding to human AF9; P42568; AlphaScreen, biotin-AF4 peptide binding to FLAG-AF9; inhibition, % at 10 µM; hit rate 0.47% among 350,000;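 active means every replicate reaching a set inhibition limit, whatever the replicate mean, cut at about 25% in these data; inconclusive means mean inhibition reaches that limit but some replicates miss it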;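 further: 0% = plate neutral control median and 100% = total signal loss; the record names both 10 and 1 µM as test concentration; the first replicate is given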
Target sequence (P42568 whole entry, looked up): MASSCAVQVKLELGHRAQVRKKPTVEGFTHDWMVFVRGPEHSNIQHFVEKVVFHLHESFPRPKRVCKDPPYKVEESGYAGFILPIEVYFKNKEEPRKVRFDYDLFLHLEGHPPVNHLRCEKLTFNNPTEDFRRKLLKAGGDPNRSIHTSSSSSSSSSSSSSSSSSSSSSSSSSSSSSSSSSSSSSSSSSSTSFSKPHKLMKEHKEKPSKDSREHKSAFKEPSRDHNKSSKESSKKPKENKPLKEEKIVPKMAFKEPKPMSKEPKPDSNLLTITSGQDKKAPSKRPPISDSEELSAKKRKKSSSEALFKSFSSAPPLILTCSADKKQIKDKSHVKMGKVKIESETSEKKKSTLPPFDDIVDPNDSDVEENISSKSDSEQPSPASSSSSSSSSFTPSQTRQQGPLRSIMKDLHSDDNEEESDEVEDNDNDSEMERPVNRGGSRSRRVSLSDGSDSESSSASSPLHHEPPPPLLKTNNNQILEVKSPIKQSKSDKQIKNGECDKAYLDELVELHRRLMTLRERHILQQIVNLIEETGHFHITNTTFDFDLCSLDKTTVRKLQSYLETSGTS
LANA-H2B inh – blocks KSHV LANA binding to histone H2A/H2B; Q9QR71; cell-free LANA-H2A/H2B peptide, fluorescence polarization; inhibition, % (test concentration not listed); hit rate 0.6% among 320,000; in the data active means inhibition mostly above about 10%, no sharp cut-off; inactive means mostly below about 6.7%;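 further: stock transfer was 7.5 nL into about 10 µL; 0% = median of vehicle wells and 100% = median of positive control wells; one replicate is shown; the record names a cut of 25% in any replicate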
A1 inh – inhibitors of the anti-apoptotic protein A1, read as caspase activation. MEF A1-2A-BIM cells, Caspase-Glo 3/7 luminescence, 3 h; percent of clofoctol response, vehicle zero. caspase activation, % (test concentration not listed). hit rate 0.066% among 330,000;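 active means over half of replicate activation scores above 10%, or exactly half above 10 with the replicate mean above 10; inconclusive means replicate mean below 10 yet half the replicates above 10; inactive means over half of replicates below 10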;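 further: wells of about 30 µL received 50 nL stock; many hits fall short of the cut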
RanGTP-Impb inh – disruptors of Ran-importin-beta complex formation – biochemical, FRET, CFP-Ran, YFP-importin-beta, homogeneous, primary screen | AID 2216 | cell-free CFP-Ran/YFP-importin-beta FRET ratio | inhibition, % (test concentration not listed) | hit rate 1.1% among 300,000;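 active means most replicates above 15%; inconclusive means exactly half above 15%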;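 further: 0% = DMSO wells and 100% = Ran loaded with GDP instead of GTP; wells of about 40 µL received 100 nL stock; the first replicate is given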
T cruzi inh – blocks replication of Trypanosoma cruzi | AID 1885 | T. cruzi beta-gal in NIH3T3, luminescence, 90 h | hit rate 1.4% among 300,000 | inhibition, % (test concentration not listed);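 active means mean inhibition across valid replicates above about 55%, limit read from the data; inconclusive means mean below that limit but half or more replicates reach it; inactive means mean below it, under half of replicates reach it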;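 further: signal also drops with host cell toxicity which is not excluded here; 0% = plate median of DMSO wells and 100% = zero luminescence signal; higher percent means less beta-gal luminescence so fewer parasites; stock transfer was 50 nL into about 50 µL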
Vif TR-FRET – inhibitors of Vif binding to APOBEC3G peptide, primary screen, biochemical, TR-FRET, GST-Vif 1-94, biotin-A3G peptide, dose response retest (AID 1117319). TR-FRET GST-Vif / biotin-A3G peptide binding; higher % means a stronger effect; test concentration not given here; strong numbers were not always called active. one-dose inhibition, %; IC50 in µM for titrated hits. hit rate 0.57% among 260,000;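 active means above the screen mean plus three standard deviations and confirmed in dose response; inconclusive means results disagree or hit not tested in dose response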;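 further: Vif residues 1-94 fused to GST binding biotinylated APOBEC3G peptide 110-148; 0% = full assay without inhibitor and 100% = GST in place of GST-Vif; retest series ran down from 100 µM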
Numbers without * were called inactive; ? = inconclusive; . = no result given. No enrichment for hits, and some 4.3% of all compounds hit somewhere here.

SMILES	Beta apoptosis	Calb FLC	MLL AF4-AF9 inh	LANA-H2B inh	A1 inh	RanGTP-Impb inh	T cruzi inh	Vif TR-FRET
CCN(CC)c1ccc(/C=N/Nc2nn[nH]n2)cc1	-2	2	0.0	-2.4	-0.5	5.6	2	33%
Cn1cc(C(=O)N/N=C/C2=C(N3CCOCC3)C(=C\c3ccccc3)/CC2)ccc1=O	7	-21	.	-0.2	-0.1	6.3	-12	30%
CCN(CC)c1ccc(S(=O)(=O)N(CC)CC)cc1NC(=O)C1CCCC1	0	-9	-4.1	2.7	0.2	2.1	12	16%
O=C(CCn1cncn1)N1CCN(S(=O)(=O)c2ccc(Cl)cc2)CC1	-3	3	-2.5	-2.6	0.6	6.1	-5	.
CCn1c(COc2cccc(C)c2C)nnc1SCC(=O)Nc1cc(C)on1	2	30	0.2	-4.6	0.0	3.9	-8	3%
CN(Cc1ccc(F)cc1)C(=O)CNC(=O)C1CCCCC1	-7	-5	-1.1	10	?	4.4	-10	0%
Cc1cc(C)cc(NC(=O)C2CCN(S(C)(=O)=O)CC2)c1	.	4	-5.5	5.3	0.0	-2.4	-4	9%
O=C(N/N=C/c1ccc([N+](=O)[O-])s1)C(O)c1ccccc1 (stereo not given)	94*	54	2.4	2.6	0.7	1.8	77*	?
N#CC1=C(SCc2ccccc2)NC(=O)CC1c1ccccc1 (stereo not given)	-1	29	.	8.7	-0.3	7.2	5	10%
CN(C)c1ccc(/C=N/NC(=O)C(=O)N2CCCCCC2)cc1	-4	-3	-0.7	1.6	-0.1	-2.5	-1	.
C=CCn1c(=S)[nH]c2cc(C(=O)N3CCN(c4ccccc4OC)CC3)ccc2c1=O	-6	.	3.6	2.0	0.1	.	.	-2%
CCN1CCN(C(=O)C(=O)c2cn(CC(=O)N3CCCC3)c3ccccc23)CC1	-4	10	-0.3	1.6	-1.0	2.6	-7	2%
CCC/C(=N\NC(=O)c1ccccc1C)c1ccccc1	-3	-1	2.3	1.3	1.1	1.2	-12	0%
CCOc1ccccc1OCCC(=O)Nc1ccc(F)c(Cl)c1	-7	-10	-0.5	-5.2	0.2	-1.2	20	0%
C#Cc1ccc([C@@H]2C=C(C(=O)N3CCOCC3)O[C@H](OCCCCO)C2)cc1	-1	-11	-0.7	0.0	0.3	-2.3	-18	0%
CCOC(=O)c1oc2c(C)c(O)ccc2c(=O)c1-c1nncn1-c1ccccc1	-2	-5	.	-6.8	0.3	2.9	-5	-3%
COc1ccc(CCNC(=O)CSc2nnc(CNC(=O)c3ccco3)o2)cc1OC	-2	0	.	-2.3	-0.7	-4.4	-9	6%
CCC(C)Sc1ccc([C@@H]2[C@@H]3C(=O)N(C)C(=O)[C@@H]3[C@]3(C(=O)OC)CCCCN23)cc1 (stereo not given in full)	0	21	.	-0.3	0.1	-1.1	1	.
Cc1cc(=O)[nH]c(SCC(=O)NC2CCCCC2)n1	5	-11	5.6	-20	-0.2	-0.7	-5	-10%
Clc1ccc2nc(C3CCN(Cc4nnnn4C4CCCCC4)CC3)[nH]c2c1	-6	15	.	-1.2	-0.6	0.7	25	8%
CCCCN(Cc1ccco1)S(=O)(=O)c1csc(C(N)=O)c1	0	-5	2.0	-3.6	-0.7	3.9	1	.
O=C(OCC(=O)N1CCCc2ccccc21)c1cc(S(=O)(=O)N2CCOCC2)ccc1Cl	7	-2	-1.8	2.0	0.4	0.5	4	0%
COc1cccc(C(=O)C2CCCN(C(=O)CCc3scnc3C)C2)c1 (stereo not given)	-4	7	-0.7	-2.7	1.5	5.6	4	-9%
COc1cccc(/C=N/n2c(C)nc3ccccc3c2=O)c1O	-7	.	.	3.9	0.1	-1.4	-9	3%
CCOC(=O)C1CCN(C(=O)c2sc3nc(-c4ccccc4)cn3c2C)CC1	-1	-4	.	-0.3	-0.2	1.8	20	-1%
O=C(CNC(=O)N1CC(=O)Nc2ccccc21)Nc1ccccc1	.	-2	-0.2	7.8	1.2	0.7	-13	.
Cc1cc(=O)oc2cc(OCC3CC(c4ccccc4Cl)=NO3)ccc12 (stereo not given)	21	15	.	0.1	0.4	2.4	20	11%
COc1ccc(CC(=O)OCC(=O)NCCNC(=O)COC(=O)Cc2ccc(OC)cc2)cc1	-6	4	-2.9	-0.4	0.2	-1.3	-5	-4%
CCCCn1c(N)c(N(CC(C)C)C(=O)c2cccc(S(=O)(=O)N(C)c3ccccc3)c2)c(=O)[nH]c1=O	11	-4	?	-13	0.8	1.5	3	-6%
Cc1[nH]n(-c2ccc(Cl)cc2)c(=O)c1C(=O)c1ccccc1	-5	1	6.0	-1.6	-1.4	7.8	-9	25%
COc1cccc(S(=O)(=O)Nc2ccc3c(c2)OCCO3)c1	.	-1	0.3	-1.3	0.1	2.6	-10	.
CN(CC(=O)Nc1ccc(F)cc1)C(=O)c1ccncc1	-1	-8	0.2	-2.6	0.3	0.9	-26	.
Cc1cccc(N2CCN(c3ccc4cc(S(=O)(=O)N5CCCCC5)ccc4n3)CC2)c1C	8	-13	-8.5	3.5	-0.3	-0.9	-25	-38%
CN(CC(=O)Nc1ccccc1Cl)C(=O)CCSc1ccc(F)cc1	-2	-2	?	-3.9	2.2	-0.8	3	0%
O=C(COc1ccccc1Cl)Nc1ccc2oc(=O)ccc2c1	-7	-6	-1.3	8.1	-0.2	0.5	2	.
COc1cc(N=Nc2ccccc2C(=O)O)ccc1O	0	.	4.0	1.1	-0.7	-1.1	-8	12%
COc1ccc(C(CC(=O)N2CCCC2)c2c(OC)cc(OC)c3ccc(=O)oc23)cc1 (stereo not given)	-1	3	-1.2	-1.5	-0.5	3.9	-2	9%
O=C(NCCCc1ccccc1)c1ccc([N+](=O)[O-])cc1Cl	-4	1	-2.7	2.7	0.7	-5.2	13	.
O=C(NC1CCCCCC1)C1C2C=CC3(CN(Cc4cccnc4)C(=O)C13)O2 (stereo not given)	-6	1	2.4	-6.6	0.5	4.7	-4	-3%
O=C(c1ccc2ccccc2n1)N1CCN(S(=O)(=O)c2ccccc2)CC1	-4	.	1.0	-4.0	0.3	.	.	.
CCOC(=O)N1CCN(C(=O)C2CCN(Cc3ccc(OC)cc3OC)CC2)CC1	-3	6	-12	-7.4	0.3	2.0	-14	.
CCCn1c2ccc(/C(C)=N\O)cc2c2cc(/C(C)=N/O)ccc21	-4	34	.	5.2	-0.2	5.8	4	8%
CCCNS(=O)(=O)c1ccc(CCC(=O)N2CCN(c3ccc(F)cc3)CC2)cc1	0	5	.	4.6	-0.5	-3.6	16	7%
COc1ccc(NC(=O)c2ccccc2SC)cc1OC	-5	-2	.	1.0	0.2	0.8	-11	-5%
COc1ccc(C(=O)NCCCNC(=O)c2ccccn2)cc1Br	-3	16	0.6	6.2	0.3	-5.2	9	.
CC(C)(NO)/C(=N/O)c1ccc(Br)cc1	.	-22	.	-0.9	0.4	-0.7	7	7%
O=C(NC(=S)N(Cc1ccccc1)Cc1ccccc1)c1ccccc1F	15	16	.	-0.6	0.4	-0.9	-10	-6%
O=C(NCCCN1CCOCC1)c1cc2ccccc2oc1=O	0	-3	.	2.2	1.3	1.7	-8	17%

17 consecutive records out of the list so far, for reference:
SMILES	Beta apoptosis	Calb FLC	MLL AF4-AF9 inh	LANA-H2B inh	A1 inh	RanGTP-Impb inh	T cruzi inh	Vif TR-FRET
CN(CC(=O)Nc1ccc(F)cc1)C(=O)c1ccncc1	-1	-8	0.2	-2.6	0.3	0.9	-26	.
Cc1cccc(N2CCN(c3ccc4cc(S(=O)(=O)N5CCCCC5)ccc4n3)CC2)c1C	8	-13	-8.5	3.5	-0.3	-0.9	-25	-38%
CN(CC(=O)Nc1ccccc1Cl)C(=O)CCSc1ccc(F)cc1	-2	-2	?	-3.9	2.2	-0.8	3	0%
O=C(COc1ccccc1Cl)Nc1ccc2oc(=O)ccc2c1	-7	-6	-1.3	8.1	-0.2	0.5	2	.
COc1cc(N=Nc2ccccc2C(=O)O)ccc1O	0	.	4.0	1.1	-0.7	-1.1	-8	12%
COc1ccc(C(CC(=O)N2CCCC2)c2c(OC)cc(OC)c3ccc(=O)oc23)cc1 (stereo not given)	-1	3	-1.2	-1.5	-0.5	3.9	-2	9%
O=C(NCCCc1ccccc1)c1ccc([N+](=O)[O-])cc1Cl	-4	1	-2.7	2.7	0.7	-5.2	13	.
O=C(NC1CCCCCC1)C1C2C=CC3(CN(Cc4cccnc4)C(=O)C13)O2 (stereo not given)	-6	1	2.4	-6.6	0.5	4.7	-4	-3%
O=C(c1ccc2ccccc2n1)N1CCN(S(=O)(=O)c2ccccc2)CC1	-4	.	1.0	-4.0	0.3	.	.	.
CCOC(=O)N1CCN(C(=O)C2CCN(Cc3ccc(OC)cc3OC)CC2)CC1	-3	6	-12	-7.4	0.3	2.0	-14	.
CCCn1c2ccc(/C(C)=N\O)cc2c2cc(/C(C)=N/O)ccc21	-4	34	.	5.2	-0.2	5.8	4	8%
CCCNS(=O)(=O)c1ccc(CCC(=O)N2CCN(c3ccc(F)cc3)CC2)cc1	0	5	.	4.6	-0.5	-3.6	16	7%
COc1ccc(NC(=O)c2ccccc2SC)cc1OC	-5	-2	.	1.0	0.2	0.8	-11	-5%
COc1ccc(C(=O)NCCCNC(=O)c2ccccn2)cc1Br	-3	16	0.6	6.2	0.3	-5.2	9	.
CC(C)(NO)/C(=N/O)c1ccc(Br)cc1	.	-22	.	-0.9	0.4	-0.7	7	7%
O=C(NC(=S)N(Cc1ccccc1)Cc1ccccc1)c1ccccc1F	15	16	.	-0.6	0.4	-0.9	-10	-6%
O=C(NCCCN1CCOCC1)c1cc2ccccc2oc1=O	0	-3	.	2.2	1.3	1.7	-8	17%

Later entries:
SMILES	Beta apoptosis	Calb FLC	MLL AF4-AF9 inh	LANA-H2B inh	A1 inh	RanGTP-Impb inh	T cruzi inh	Vif TR-FRET
COc1cc2c(cc1OC)C(c1ccccc1)N(C(=O)c1ccco1)CC2 (stereo not given)	-4	11	11	-1.5	-0.1	1.0	13	2%
Cc1nnc(Nc2ccc(Cl)c(C(F)(F)F)c2)[nH]c1=O	2	-12	-1.2	-3.4	-0.7	0.4	-13	-3%
COc1ccc(-c2cn3cccnc3n2)cc1NC(=O)C(C)C	4	6	-1.7	-6.4	0.4	-3.6	19	.
COc1ccccc1C(=O)Nc1sc2c(c1C#N)CCC2	.	5	.	1.3	-0.4	5.3	2	-20%
O=C(c1ccc2c3c(cccc13)CC2)C1CCCN(C(=O)c2cccnc2)C1 (stereo not given)	-11	17	3.3	4.0	-0.6	-0.6	-11	2%
